# TRPML1 ag: qHTS for Agonists of the Human Mucolipin Transient Receptor Potential 1 (TRPML1). Mucolipin-1 (Homo sapiens), Q9GZU1. TRPML1-expressing cells, Ca2+ dye fluorescence, FDSS; host cell line not named in the record; reference of the full effect not given here. activation, % (test concentration not listed). 0.12% of 410,000 active. AID 624414, 2012; in the data active = activation above about 50%; inconclusive = about 30% to 50%; inactive = below about 30%; note: 0% is about no effect; the text of the record puts the active cut at 80%
#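 Tet-induced TRPML1-DL cells, 1,500 per well, cultured overnight, were loaded with a no-wash Ca2+ dye for 45–90 min. Calcium fluorescence was recorded on the FDSS for 110 s after compound addition, before the EC80 agonist (4 uM 54-4) was added.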
# Six1-Eya2 inh: qHTS Assay for Inhibitors of the Six1/Eya2 Interaction | AlphaScreen GST-Six1/His-Eya2 binding, biochemical; hits give low values; control for the full effect not named in the record | activity change, % (no concentration beside the values) | 0.56% of 360,000 active | AID 651725, 2012; in the data active = activity change below about -65%; inconclusive = about -30% to -65%; inactive = above about -30%; note: % is set by controls: 0 for no effect and ±100 for the full control effect; compound concentration not given in the record
#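 AlphaScreen with GST-Six1 and His-Eya2 (5X mix: 250 nM and 500 nM), glutathione donor and nickel acceptor beads; buffer 50 mM Tris pH 8.0, 300 mM NaCl, 1 mM TCEP; 1 h at 37 C in the dark.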
# CtBP-E1A blk: qHTS Assay for Inhibitors of the CtBP/E1A Interaction | CtBP / adenovirus E1A interaction (AlphaScreen) | AlphaScreen GST-E1A/His-CtBP binding, 1536-well; hits give low values; control for the full effect not named in the record | activity change, % (concentration not given with the values) | 0.49% of 340,000 active | AID 651724, 2012; in the data active means activity change below about -65%; inconclusive means about -30% to -65%; inactive means above about -30%; note: % is set by controls: 0 for no effect and ±100 for the full control effect
#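 Homogeneous bead-based format: GST-tagged E1A captured on glutathione donor beads, His-tagged CtBP on nickel acceptor beads; compounds precede bead addition by 2 h at 37 °C.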
# TRPV1 potentiator: HTS Assay for Compounds that Act as Potentiators of the Vanilloid Receptor 1. 0.02% of 320,000 active. potentiation, % at 8.33 µM. TRPV1-expressing cells, Fluo-8 calcium influx, capsaicin EC20 potentiation; host cell line not named in the record; control for the full effect not named in the record; active means potentiation above 80%; inconclusive means 30% to 80%; inactive means below 30%; note: 0% is about no effect
# Target sequence (Q8NER1 whole entry, looked up): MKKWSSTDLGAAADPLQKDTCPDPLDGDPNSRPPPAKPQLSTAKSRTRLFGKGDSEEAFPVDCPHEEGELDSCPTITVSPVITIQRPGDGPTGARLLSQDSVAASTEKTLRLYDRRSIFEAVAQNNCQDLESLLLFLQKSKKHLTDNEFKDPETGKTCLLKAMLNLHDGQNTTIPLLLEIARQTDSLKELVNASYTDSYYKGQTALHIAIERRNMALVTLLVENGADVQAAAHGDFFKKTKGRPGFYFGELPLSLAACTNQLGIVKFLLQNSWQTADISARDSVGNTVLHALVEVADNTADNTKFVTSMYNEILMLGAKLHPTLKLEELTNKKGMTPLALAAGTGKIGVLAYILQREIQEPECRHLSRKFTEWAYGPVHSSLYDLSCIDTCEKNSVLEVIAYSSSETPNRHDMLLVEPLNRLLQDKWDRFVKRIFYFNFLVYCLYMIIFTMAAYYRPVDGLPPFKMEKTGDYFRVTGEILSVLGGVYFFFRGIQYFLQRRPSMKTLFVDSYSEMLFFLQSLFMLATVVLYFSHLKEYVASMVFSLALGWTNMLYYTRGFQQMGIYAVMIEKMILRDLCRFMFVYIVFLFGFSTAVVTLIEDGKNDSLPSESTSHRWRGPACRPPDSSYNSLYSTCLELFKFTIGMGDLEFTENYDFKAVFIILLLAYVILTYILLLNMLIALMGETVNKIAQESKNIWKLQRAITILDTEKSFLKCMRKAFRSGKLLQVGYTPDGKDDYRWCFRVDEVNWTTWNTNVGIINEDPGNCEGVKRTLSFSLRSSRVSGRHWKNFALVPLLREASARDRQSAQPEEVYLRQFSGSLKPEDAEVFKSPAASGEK
#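 Cells expressing TRPV1 were dye-loaded with Fluo-8 and read kinetically: 10 s baseline, 3 min after compound (agonist portion), then 2 min after EC20 capsaicin (allosteric enhancer portion). Calcium-bound dye fluorescence at 480/520 nm.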
# D2 potentiator: Beta-Arrestin HTS for Positive Allosteric Modulators of the Human D2 Dopamine Receptor: Potentiators; D(2) dopamine receptor (Homo sapiens), P14416; DiscoveRx D2 beta-arrestin cells, luminescence, 90 min; 100% = 57 uM dopamine signal; potentiation, % (concentration not given with the values); 0.23% of 360,000 active; AID 624464, 2012; active = potentiation of 50% or more; inconclusive = 30% to 50%; inactive = 30% or less;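 note: compound concentration not given in the record; tested on top of an EC20 dose of dopamine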
#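 D2 cells co-treated with compound plus 50 nM dopamine (EC20) for 90 min at 37 deg C to detect potentiation. Beta-arrestin recruitment was read as enzyme-fragment luminescence after 1 h at ambient temperature. Full response was set by 57 uM dopamine.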
# TRPML1 blocker: qHTS for Inhibitors of the Human Mucolipin Transient Receptor Potential 1 (TRPML1). Mucolipin-1 (Homo sapiens), Q9GZU1. TRPML1-inducible cells, Ca2+ dye fluorescence, FDSS; hits give low values; inhibition of EC80 agonist-evoked calcium signal. activity change, negative = inhibition, % (concentration not given with the values). 0.02% of 390,000 active. AID 624415, 2012; in the data active means activity change below about -50%; inconclusive means about -30% to -50%; inactive means above about -30%;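 note: stimulus is agonist 54-4 at its EC80 concentration; % is set by controls: 0 for no effect and ±100 for the full control effect; compound concentration not given in the record; the text of the record puts the active cut at -80%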
#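 Tet-induced TRPML1-DL cells loaded with Ca8 no-wash calcium dye were read kinetically on FDSS. Compound addition was followed by EC80 agonist 54-4 (4 uM final); inhibition was read over 110 s.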
# Active calls of the source: *; ? = inconclusive; . = not tested or not shown.
SMILES,TRPML1 ag,Six1-Eya2 inh,CtBP-E1A blk,TRPV1 potentiator,D2 potentiator,TRPML1 blocker
COc1cc(/C=C(\NC(=O)c2ccccc2)C(=O)N2CC3CC(C2)c2cccc(=O)n2C3)cc(OC)c1OC (stereo unspecified),0.9,7.4,-2.4,-4.2,-0.3,8.8
COC(=O)CC1C(=O)NCCN1C(=O)Nc1cccc(Cl)c1 (stereo unspecified),0.2,5.5,-2.0,-0.3,-24.1,-8.1
O=C(c1noc2c1CCCC2)N1CCN(c2ccccc2)CC1,1.3,-2.3,-0.9,-5.8,-3.7,7.2
COc1ccc(CNC2c3ccccc3-c3ccccc32)cc1OC,0.1,3.9,0.4,-2.9,-13.4,-0.9
COc1ccccc1NCC(=O)N/N=C/C=C/c1ccccc1,2.3,-4.8,.,9.0,-5.6,-3.2
O=C(C1CCC(CNS(=O)(=O)c2cccs2)CC1)N1CCCCC1 (stereo unspecified),-0.2,-11.5,0.0,-2.0,-22.4,-7.1
O=C(Nc1cccc([N+](=O)[O-])c1)c1ccc2c(c1)OCO2,0.0,-12.0,5.1,-23.5,-2.7,-10.6
COc1cccc(C(=O)NNC(=O)c2ccccc2Br)c1,0.2,4.2,7.1,0.5,-2.8,-11.0
Cc1ccc(S(=O)(=O)N2CCN(C(=O)CCC(=O)NCCc3ccc(S(N)(=O)=O)cc3)CC2)c(C)c1,0.4,-5.0,.,-1.5,0.7,11.5
O=C(Cn1ncn2c(cc3ccccc32)c1=O)NCCc1cccs1,0.5,4.0,0.1,-2.5,-0.8,23.3

# Some of these compounds in order of the CtBP-E1A blk value, low to high:
compound | CtBP-E1A blk
COc1cc(/C=C(\NC(=O)c2ccccc2)C(=O)N2CC3CC(C2)c2cccc(=O)n2C3)cc(OC)c1OC (stereo unspecified) | -2.4
COC(=O)CC1C(=O)NCCN1C(=O)Nc1cccc(Cl)c1 (stereo unspecified) | -2.0
O=C(C1CCC(CNS(=O)(=O)c2cccs2)CC1)N1CCCCC1 (stereo unspecified) | 0.0
O=C(Cn1ncn2c(cc3ccccc32)c1=O)NCCc1cccs1 | 0.1
COc1ccc(CNC2c3ccccc3-c3ccccc32)cc1OC | 0.4
COc1cccc(C(=O)NNC(=O)c2ccccc2Br)c1 | 7.1

# (further entries)
SMILES,TRPML1 ag,Six1-Eya2 inh,CtBP-E1A blk,TRPV1 potentiator,D2 potentiator,TRPML1 blocker
CCOc1ccc2nc(NCCCNC(=O)c3cc(OC)c(OC)c(OC)c3)c(C#N)cc2c1,9.6,10.1,5.0,2.2,9.0,18.6
O=C(COC(=O)COc1ccc(Br)cc1)NNC(=O)c1ccccc1,0.8,7.3,-9.4,.,-15.0,2.4
CCNS(=O)(=O)c1ccc2nc(NC(=O)c3cccnc3)sc2c1,0.2,-1.4,3.6,13.7,-6.9,22.5
Cc1ccc(NC(=O)CN2C(=O)N/C(=C/c3ccc(C)s3)C2=O)cc1,4.4,-2.6,3.5,-5.8,13.5,-5.6
Cc1cccc(NC(=O)CC2NC3CCCCC3NC2=O)c1 (stereo unspecified),-0.7,-3.8,5.5,19.8,-0.3,-4.9
Cc1cccc(N2CCN(C(=O)c3ccc4ncsc4c3)CC2)c1C,-0.9,0.6,-2.5,-22.7,-8.1,20.6
O=C(Nc1cccc(Cl)c1)c1cccc(N2C(=O)C3CC=CCC3C2=O)c1 (stereo unspecified),2.7,5.4,3.7,-11.5,-0.1,14.6
CC(C)c1ccc(-c2c(NCCc3ccccc3)c(=O)c2=O)cc1,-0.2,-3.7,-23.2,-5.2,-4.4,-21.1
CC1=CC2=NC(=O)CC(C)(C(=O)N(CC(=O)NC(C)(C)C)Cc3cccs3)N2C=C1 (stereo unspecified),0.2,-1.2,9.6,2.7,-10.0,8.3
CCCCn1c(N)c(N(CC(C)C)C(=O)Cc2ccc3c(c2)OCCO3)c(=O)[nH]c1=O,0.8,-1.2,-0.4,1.4,-31.8,13.7
Cc1onc(-c2ccccc2)c1C(=O)N1CCCCCC1,0.7,0.8,8.5,5.2,-2.0,21.3
Cc1ccc(NC(=O)C2CCCN(S(=O)(=O)c3cccc4nonc34)C2)cc1 (stereo unspecified),0.2,-1.8,0.8,-22.1,-2.0,7.5
O=C1C=C(NCc2ccc(Cl)c(Cl)c2)C2(CCCCC2)O1,0.2,1.0,10.2,-11.2,-5.1,-11.8
COc1ccc(S(=O)(=O)N2CCN(C3Cc4ccccc4C3)CC2)cc1,-0.6,3.0,0.5,-1.5,-10.1,-8.5
COc1ccc(-c2[nH]ncc2CN(C)Cc2cnccn2)c(OC)c1,0.6,3.7,0.0,4.0,-6.1,-11.6
CSCCC(CO)NC(=O)OCc1ccccc1 (stereo unspecified),-0.4,9.2,-1.3,-3.3,-0.8,15.7
O=C(C1CCN(S(=O)(=O)c2cccs2)CC1)N(c1ccccn1)C1CCCCC1,0.6,3.3,11.5,24.4,-4.9,-3.8
Cc1ccc2ncccc2c1N,0.6,-13.5,-16.2,-4.6,4.9,-1.9
Cc1ccc(S(=O)(=O)NCc2cc(=O)n(C)c(=O)n2C)cc1C,-0.4,2.0,0.4,16.3,2.4,-12.8
COc1ccc(OC)c(NS(=O)(=O)c2ccc(Cl)s2)c1,0.3,1.8,1.5,4.4,-9.9,15.6

# One compound at a time, as listed above. Screens in order: TRPML1 ag	Six1-Eya2 inh	CtBP-E1A blk	TRPV1 potentiator	D2 potentiator	TRPML1 blocker
# Cc1ccc2ncccc2c1N in the list: 0.6	-13.5	-16.2	-4.6	4.9	-1.9
# O=C1C=C(NCc2ccc(Cl)c(Cl)c2)C2(CCCCC2)O1 in the list: 0.2	1.0	10.2	-11.2	-5.1	-11.8
# Cc1ccc(S(=O)(=O)NCc2cc(=O)n(C)c(=O)n2C)cc1C in the list: -0.4	2.0	0.4	16.3	2.4	-12.8
# COc1ccc(S(=O)(=O)N2CCN(C3Cc4ccccc4C3)CC2)cc1 in the list: -0.6	3.0	0.5	-1.5	-10.1	-8.5

# Next part:
SMILES,TRPML1 ag,Six1-Eya2 inh,CtBP-E1A blk,TRPV1 potentiator,D2 potentiator,TRPML1 blocker
OC[C@H]1O[C@@H](n2cnc3c(Nc4ccccc4)ncnc32)[C@H](O)[C@@H]1O,0.3,1.8,5.7,9.2,1.8,-5.7
O=C(NCC1CCCO1)c1ccc2c(=O)n(CC3CCCO3)c(SCC(=O)N3CCCC3)nc2c1 (stereo unspecified),-0.5,2.1,-2.2,?,-20.8,-0.7
Cc1cc(Cl)ccc1OCCCC(=O)Nc1cccc(-n2cnnn2)c1,-0.4,1.3,.,-18.6,-5.1,17.2
COC(=O)N1c2ccccc2C=Cc2ccccc21,1.4,-5.1,-11.6,12.5,-18.7,2.4
COc1cccc(CN2CCNC(=O)C2CC(=O)N(C)Cc2cnccn2)c1OC (stereo unspecified),0.3,10.3,0.6,-18.6,-1.4,-12.6
c1ccc2c(c1)C1=NCCN1c1ccccc1-2,0.1,-25.5,-0.5,.,-14.8,-5.5
O=S1(=O)CC=C(CSc2nc3ccccc3[nH]2)C1,0.3,4.0,6.0,0.6,7.9,-8.6
COC(=O)c1ccc(N2CN=C(c3ccc(C)cc3)NC2=S)cc1,1.1,-7.1,5.3,-9.2,-4.9,-5.8
O=C(COC(=O)c1cc(S(=O)(=O)N2CCCCC2)ccc1N1CCOCC1)c1ccccc1Cl,1.6,-0.3,2.3,.,-29.0,7.8
CCNc1nc(NC(C)(C)C)nc(N(CC)n2cnnc2)n1,0.2,-1.8,-6.2,.,-4.8,9.1

# Structures above that contain an aryl thioether with sulfur outside any ring, in the order listed:
SMILES,TRPML1 ag,Six1-Eya2 inh,CtBP-E1A blk,TRPV1 potentiator,D2 potentiator,TRPML1 blocker
O=C(NCC1CCCO1)c1ccc2c(=O)n(CC3CCCO3)c(SCC(=O)N3CCCC3)nc2c1 (stereo unspecified),-0.5,2.1,-2.2,?,-20.8,-0.7
O=S1(=O)CC=C(CSc2nc3ccccc3[nH]2)C1,0.3,4.0,6.0,0.6,7.9,-8.6

# More records
SMILES,TRPML1 ag,Six1-Eya2 inh,CtBP-E1A blk,TRPV1 potentiator,D2 potentiator,TRPML1 blocker
COC(=O)c1ccsc1NC(=O)CSc1nnnn1-c1ccccc1SC,0.6,-2.4,0.8,4.1,-3.6,5.7
CCOC(=O)C1CCN(Cc2cnc(Oc3ccc(OC)cc3)s2)CC1,0.9,-0.1,1.9,27.8,?,9.2
COc1ccccc1C(=O)NC(CCSC)C(=O)NC1CC1 (stereo unspecified),0.1,6.1,-10.4,.,-1.8,22.2
CSc1ccc(CN(C)C(=O)C23CC4CC(CC(Cl)(C4)C2)C3)cc1,1.4,-0.5,7.3,-1.6,-3.0,28.6
Cc1nc(C)c(-c2csc(Nc3ccccn3)n2)s1,1.6,-16.5,-13.8,-2.8,-2.8,-9.9
COc1cc(/C=N/Nc2ccc(Cl)cc2)ccc1OC(=O)c1cccs1,1.6,1.6,-8.7,-4.8,-14.3,13.0
CC(=O)c1cccc(NC(=O)Oc2ccccc2)c1,0.3,-0.8,-12.5,1.1,-8.6,0.6
COc1ccc(CNC(=O)Cc2c(C(=O)O)[nH]c3ccccc23)cc1,0.4,5.6,9.6,-3.1,-3.5,-0.5
CC(NC(=O)c1ccco1)C(c1cccs1)N1CCOCC1 (stereo unspecified),-0.7,6.8,-6.4,-6.9,0.2,1.1
O=C1CC(c2ccc(Cl)cc2)c2c(O)cc(O)cc2O1 (stereo unspecified),-1.1,2.1,-1.1,4.3,-3.2,10.0
COc1cc2c(cc1OC)CN(C(=O)COc1ccc(C#N)cc1)CC2,-0.6,3.4,-5.0,2.4,2.6,5.7
O=C(O)CCC(=O)NNC(=O)c1ccc(-c2ccccc2)cc1,1.6,4.5,17.7,-4.7,17.9,-2.4
CCOC(=O)c1ccc(Oc2cc(C)nc(SC)n2)cc1,0.6,22.8,15.4,14.7,2.0,-5.3
CNC(=O)c1ccc(-c2ccc(Cl)c(Cl)c2)s1,0.2,6.5,-13.7,-7.8,-0.8,5.2
Cc1ccc(C(=O)NCC(=O)NC2CCCC2)cc1,-0.4,-1.6,-0.2,10.1,-3.7,-9.9
O=C(O)c1cccc(CSc2nnc(-c3ccco3)o2)c1,0.8,3.2,13.3,4.4,7.8,1.4
O=C1Nc2ccccc2C(=O)N2CCCCC12 (stereo unspecified),0.2,5.5,-1.3,7.1,-12.4,1.9
CCc1ccc(NC(=O)C(C)Oc2nnc(-c3cccs3)c(-c3cccs3)n2)cc1 (stereo unspecified),0.9,-16.9,-15.8,1.2,-12.6,-6.0
COc1ccc(C2c3c(oc4ccccc4c3=O)C(=O)N2c2ccc(C)cn2)cc1OC (stereo unspecified),-0.1,-3.0,1.8,-17.9,-2.2,-4.8

# Reprinted at random: 2 entries already listed.
SMILES,TRPML1 ag,Six1-Eya2 inh,CtBP-E1A blk,TRPV1 potentiator,D2 potentiator,TRPML1 blocker
COc1cc2c(cc1OC)CN(C(=O)COc1ccc(C#N)cc1)CC2,-0.6,3.4,-5.0,2.4,2.6,5.7
CNC(=O)c1ccc(-c2ccc(Cl)c(Cl)c2)s1,0.2,6.5,-13.7,-7.8,-0.8,5.2

# Screens deposited in PubChem BioAssay by National Center for Advancing Translational Sciences (NCATS).
